Vaccinia inh – blocks a specific stage of Vaccinia orthopoxvirus infection, primary screen, cell-based, single point; Vaccinia-infected cells, mCherry/Venus stage reporter fluorescence; active compounds read low; some inactives read as strong as hits; activity change (mCherry), % (test concentration not listed); hit rate 0.01% among 89,000; AID 1053133, 2014;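 active = mCherry past -33% and 40 or more points under the early reporter, replicates agreeing; inconclusive = past -33% without that gap or agreement; tested in A549 cells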;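 note: scaled between vehicle wells and reference inhibitor wells; 23 nL library stock went into each well; one replicate is shown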
Vaccinia inh Venus – recorded beside Vaccinia inh, whose call it bears; activity change (Venus), %; measured here: Venus reporter, other viral stage;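 negative = less Venus signal; first of two replicates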
* hit, by the source's call; ? = inconclusive; · = no result given. This is a subset; rates above refer to the full screens.

SMILES | Vaccinia inh | Vaccinia inh Venus
CCCN(C)C[C@@H]1Oc2cc(C#CCN(C)C)ccc2S(=O)(=O)N([C@@H](C)CO)C[C@@H]1C | 8 | 6
CC(C)c1cn(CC[C@@H]2CC[C@@H](NC(=O)C3CCCC3)[C@H](CO)O2)nn1 | 2 | 19
CCCNC(=O)N1[C@H](CO)[C@H](c2ccccc2)[C@@H]1CNC(=O)C1CCC1 | 0 | 11
Cc1ccc(S(=O)(=O)N(C)C[C@@H]2OCCCC[C@H](C)Oc3ccc(NC(=O)Nc4c(C)noc4C)cc3C(=O)N([C@H](C)CO)C[C@H]2C)cc1 | 15 | 7
Cc1ccc(S(=O)(=O)N(C)C[C@@H]2OCCCC[C@@H](C)Oc3ccc(NS(=O)(=O)c4cccs4)cc3C(=O)N([C@H](C)CO)C[C@H]2C)cc1 | ? | ·
CC(C)NC(=O)N[C@H]1CC[C@H](CC(=O)N2CCCCC2)O[C@@H]1CO | 0 | 7
C[C@H](CO)N1C[C@H](C)[C@H](CN(C)Cc2ccccc2)Oc2ncc(C3=CCCC3)cc2C1=O | 3 | -5
CO[C@H]1CN(C)C(=O)c2ccc(NS(=O)(=O)c3ccccc3)cc2OC[C@@H](C)N(Cc2ccccn2)C[C@H]1C | 18 | 11
COc1ccc(NC(=O)Nc2ccc3c(c2)C(=O)N([C@H](C)CO)C[C@H](C)[C@@H](CN(C)S(=O)(=O)c2ccc(F)cc2)OCCCC[C@H](C)O3)cc1 | -7 | 2
C[C@@H]1CN([C@H](C)CO)C(=O)c2cc(/C=C/c3ccccc3)cnc2O[C@@H]1CN(C)Cc1ccccc1 | -29 | -30
C[C@H](CO)N1C[C@H](C)[C@H](CN(C)C(=O)Nc2ccc(C(F)(F)F)cc2)Oc2c(NC(=O)Nc3cccc4ccccc34)cccc2C1=O | -24 | -24
CCS(=O)(=O)Nc1ccc2c(c1)C(=O)N(C)[C@H]1CC[C@H](CC(=O)N[C@@H]3CCN(Cc4ccccc4)C3)O[C@@H]1CO2 | 6 | -1
COc1ccccc1NC(=O)N[C@@H]1CC[C@@H](CCNS(=O)(=O)c2ccc(C)cc2)O[C@H]1CO | 1 | -12
C[C@@H]1CN([C@@H](C)CO)C(=O)CCCn2cc(nn2)CO[C@@H]1CN(C)Cc1ccc2c(c1)OCCO2 | 14 | 17
CCN1[C@H](C(=O)NC2CCC2)[C@@H](CO)[C@@H]2Cn3c(ccc(-c4ccc(OC)cc4)c3=O)[C@@H]21 | -2 | 8
C[C@@H]1CN([C@H](C)CO)C(=O)c2cc(N(C)C)ccc2O[C@@H](C)CCCCO[C@@H]1CN(C)C(=O)c1ccncc1 | -1 | 14
Cc1ccc(S(=O)(=O)NCC[C@@H]2CC[C@H](NC(=O)c3cnccn3)[C@@H](CO)O2)cc1 | -5 | -2
C[C@H](CO)N1C[C@H](C)[C@@H](CN(C)S(=O)(=O)c2ccc(F)cc2)Oc2ccc(NS(=O)(=O)c3ccc(F)cc3)cc2C1=O | 10 | 5
COCC(=O)N1C[C@H](C)[C@@H](OC)CN(C)C(=O)c2ccc(NC(=O)c3ccc(OC)cc3)cc2OC[C@@H]1C | 18 | 19
COc1ccc(CNC(=O)C[C@H]2C=C[C@H](NC(=O)CN(C)C)[C@H](CO)O2)cc1 | -14 | 7
C/C=C/c1ccc([C@H]2[C@@H](CO)N(S(C)(=O)=O)[C@H]2CN(CC)C(C)=O)cc1 | -1 | 6
C[C@@H]1CN([C@@H](C)CO)C(=O)c2cc(/C=C/c3ccccc3)cnc2O[C@@H]1CN(C)C(=O)c1ccc(F)cc1 | -32 | -21
CC(C)NC(=O)Nc1ccc2c(c1)C(=O)N([C@H](C)CO)C[C@@H](C)[C@@H](CN(C)S(=O)(=O)c1cccs1)OCCCC[C@H](C)O2 | 4 | 14
CCNC(=O)C[C@H]1CC[C@@H](NS(=O)(=O)c2ccc(C)cc2)[C@@H](CO)O1 | -2 | 13
C[C@H]1CN([C@@H](C)CO)C(=O)Cc2cc(NS(=O)(=O)c3ccccc3)ccc2O[C@@H]1CN(C)C(=O)Nc1ccc(C(F)(F)F)cc1 | 19 | 8
The list goes on:
SMILES | Vaccinia inh | Vaccinia inh Venus
O=C(C[C@H]1CC[C@@H]2[C@H](COC[C@@H](O)CN2S(=O)(=O)c2cccc(Cl)c2)O1)NC1CCC1 | -2 | -8
CCCN1[C@H](C(=O)NCCCN2CCOCC2)[C@@H](CO)[C@@H]2Cn3c(ccc(-c4ccccc4)c3=O)[C@@H]21 | 7 | 8
C[C@H]1CCCCO[C@@H](CN(C)C(=O)Nc2ccccc2)[C@@H](C)CN([C@@H](C)CO)C(=O)c2cc(NC(=O)Nc3ccc4c(c3)OCO4)ccc2O1 | -4 | -10
O=C(c1ccccn1)N1C[C@@H]2[C@H](c3ccccc31)[C@@H](CO)N2C(=O)C1CCCC1 | 9 | 7
CO[C@@H](CN(C)C(=O)c1ccccc1F)[C@@H](C)CN([C@@H](C)CO)S(=O)(=O)c1ccc(F)cc1 | 7 | 11
CCNC(=O)C[C@@H]1CC[C@H]2[C@@H](COc3ccc(NC(=O)c4cccc(OC)c4)cc3C(=O)N2C)O1 | 17 | 13
C[C@H]1CN([C@@H](C)CO)C(=O)Cc2cc(NS(=O)(=O)c3ccc(F)cc3)ccc2O[C@H]1CN(C)Cc1ccccc1 | -23 | -16
CO[C@@H]1CN(C)C(=O)c2cc(NC(=O)C3CC3)ccc2OC[C@H](C)N(Cc2nccs2)C[C@@H]1C | -1 | -6
CC(C)NC(=O)N1CCCCN2[C@@H](CO)[C@@H](c3ccc(Br)cc3)[C@@H]2C1 | 1 | 0
O=C(C[C@H]1CC[C@@H](NC(=O)Nc2cc(F)ccc2F)[C@@H](CO)O1)NCc1ccncn1 | 2 | 1
O=C(C1CCCC1)N1CC2(C1)[C@@H](c1ccccc1)[C@@H](CO)N2C(=O)NC1CCCC1 | 8 | 4
COc1ccccc1S(=O)(=O)N[C@H]1CC[C@H](CCn2cc(C3CC3)nn2)O[C@H]1CO | 2 | 9
COCC(=O)N1CCC2(CC1)CN(Cc1cccc(OC)c1)[C@H](CO)c1[nH]c3cc(OC)ccc3c12 | 11 | 2
CCCC(=O)Nc1ccc2c(c1)OC[C@@H](C)N(Cc1cccc(F)c1)C[C@H](C)[C@H](OC)CN(C)C2=O | -25 | -17
C[C@H]1CN([C@@H](C)CO)C(=O)Cc2cc(NS(=O)(=O)c3cn(C)cn3)ccc2O[C@H]1CN(C)C(=O)Nc1ccc(F)cc1 | 8 | 7
O=C(C1CCC1)N1CC(=O)N2[C@@H](CO)[C@H](c3ccc(C#Cc4cccc(F)c4)cc3)[C@@H]2C1 | -31 | -30
C[C@@H]1CN([C@@H](C)CO)C(=O)c2cc(C#Cc3ccccc3)cnc2O[C@H]1CN(C)C(=O)CN(C)C | -6 | -5
C[C@H](CO)N1C[C@H](C)[C@H](CN(C)CC2CC2)Oc2ncc(C#CC3(O)CCCC3)cc2C1=O | 4 | 2
Cc1ccc(S(=O)(=O)N[C@@H]2CC[C@@H](CCNC(=O)C3CCCC3)O[C@@H]2CO)cc1 | -7 | 13
CCS(=O)(=O)Nc1ccc2c(c1)C(=O)N(C)C[C@@H](OC)[C@H](C)CN(CC1CCCCC1)[C@@H](C)CO2 | -26 | -20
COCC#Cc1ccc2c(c1)O[C@@H](CN(C)C(=O)c1ccccc1)[C@@H](C)CN([C@H](C)CO)S2(=O)=O | 1 | -6
C[C@H]1CN([C@@H](C)CO)C(=O)c2cccc(NC(=O)C3CCOCC3)c2O[C@H]1CN(C)C(=O)Nc1cccc2ccccc12 | 10 | 5
C[C@@H]1CCCCO[C@@H](CN(C)C(=O)Nc2cccc3ccccc23)[C@H](C)CN([C@H](C)CO)C(=O)c2cc(NC(=O)Nc3ccc(C(F)(F)F)cc3)ccc2O1 | -7 | -7
CNC(=O)C[C@H]1CC[C@H]2[C@@H](COc3ccc(NC(=O)Nc4ccc(C)cc4)cc3C(=O)N2C)O1 | 6 | 8
CO[C@H]1CN(C)C(=O)c2ccc(NC(=O)C3CCC3)cc2OC[C@@H](C)N(Cc2ccncc2)C[C@H]1C | -32 | -21
Next structures
SMILES | Vaccinia inh | Vaccinia inh Venus
C[C@@H]1CN([C@@H](C)CO)C(=O)c2cc(NS(=O)(=O)c3ccccc3)ccc2O[C@@H](C)CCCCO[C@@H]1CN(C)S(=O)(=O)c1cccs1 | -21 | -16
O=C(C[C@H]1C=C[C@H](NC(=O)CC2CC2)[C@@H](CO)O1)NCc1ccccc1 | 5 | 5
CCCNC(=O)[C@H]1[C@H](CO)[C@H]2Cn3c(cccc3=O)[C@H]2N1Cc1cccc(F)c1 | 9 | 6
C[C@@H]1CN([C@H](C)CO)C(=O)CCCn2nncc2CO[C@H]1CN(C)C(=O)Oc1cccc2ccccc12 | 3 | -1
CO[C@H]1CN(C)C(=O)c2cc(NC(=O)NC(C)C)ccc2OC[C@H](C)N(C(=O)CC2CC2)C[C@H]1C | 0 | 7
CCC(=O)N(C)C[C@@H]1Oc2cc(-c3ccc(C)cc3)ccc2S(=O)(=O)N([C@@H](C)CO)C[C@@H]1C | -18 | -15
C[C@@H]1CN([C@H](C)CO)C(=O)c2cccc(NC(=O)C3CCOCC3)c2O[C@H]1CN(C)Cc1ccccc1 | -5 | -8
C[C@H](CO)N1C[C@H](C)[C@H](CN(C)C(=O)CN2CCOCC2)Oc2ncc(/C=C/c3ccccc3)cc2C1=O | 8 | 4
Cc1ccc(S(=O)(=O)Nc2ccc3c(c2)C(=O)N([C@H](C)CO)C[C@H](C)[C@@H](CN(C)S(=O)(=O)c2ccc(C)cc2)OCCCC[C@H](C)O3)cc1 | ? | ·
O=C(C[C@H]1CC[C@@H](NC(=O)c2ccccc2)[C@H](CO)O1)NCCc1ccncc1 | 3 | 3
C[C@@H]1CN([C@@H](C)CO)C(=O)Cc2cc(NS(=O)(=O)c3ccc(F)cc3)ccc2O[C@H]1CN(C)Cc1ccc(C(=O)Nc2ccccc2N)cc1 | 26 | 19
C[C@H](CO)N1C[C@H](C)[C@@H](CN(C)C(=O)C2CCCCC2)OCc2cn(nn2)CCCC1=O | 29 | 18
C[C@H](CO)N1C[C@H](C)[C@@H](CN(C)Cc2ccc3c(c2)OCO3)Oc2ccc(NC(=O)C3CCCCC3)cc2C1=O | -15 | -2
C[C@H](NC(=O)C[C@H]1CC[C@@H](NC(=O)C2CC2)[C@@H](CO)O1)c1ccccc1 | 19 | 15
O=C(C[C@H]1CC[C@H]2[C@@H](COC[C@@H](O)CN2Cc2ccccc2)O1)N[C@@H]1CCN(Cc2ccccc2)C1 | -26 | -9
C/C=C/c1ccc([C@H]2[C@@H](CO)N(C(=O)CC)[C@@H]2CNCC2CCCCC2)cc1 | -4 | 8
CNC[C@H]1Oc2cc(C#CC(C)(C)O)ccc2S(=O)(=O)N([C@H](C)CO)C[C@H]1C | 10 | -2
COc1ccc(-c2ccc([C@@H]3[C@H]4CN(C(=O)c5ccccn5)CC(=O)N4[C@H]3CO)cc2)cc1 | 4 | -1
CCC(=O)Nc1ccc2c(c1)OC[C@H](C)N(C(=O)C1CC1)C[C@@H](C)[C@H](OC)CN(C)C2=O | 14 | 9
COc1ccc(/C=C2\SC(=S)N(CCCC(=O)NC34CC5CC(CC(O)(C5)C3)C4)C2=O)cc1 | 13 | 12
C[C@H](CO)N1C[C@H](C)[C@H](CN(C)S(=O)(=O)c2ccc(-n3cccn3)cc2)OCc2cn(nn2)CCCC1=O | 25 | 3
C[C@H]1CN([C@@H](C)CO)C(=O)c2cc(-c3ccc(C(=O)N(C)C)cc3)cnc2O[C@H]1CN(C)C(=O)c1cccnc1 | 26 | 17
O=C(C[C@H]1CC[C@@H](NC(=O)c2ccc3c(c2)OCO3)[C@H](CO)O1)NC1Cc2ccccc2C1 | -13 | -13
COc1cccc(CNC(=O)C[C@@H]2C=C[C@H](NC(C)=O)[C@@H](CO)O2)c1 | 4 | 5
O=C(O)C[C@H]1C[C@@H]2c3cc(NC(=O)Nc4ccc(F)cc4)ccc3O[C@@H]2[C@@H](CO)O1 | 7 | 2
COCC(=O)N1CC2(CN(Cc3cccnc3)C2)c2c(n(C)c3cc(OC)ccc23)[C@@H]1CO | -1 | -6
O=C(CC1CC1)N1CC[C@@H]2[C@@H](CO)Nc3ccc(-c4ccc(F)cc4)cc3[C@@H]21 | -20 | -13
CNC[C@@H]1OCCCC[C@@H](C)Oc2ccc(NS(=O)(=O)c3cccs3)cc2C(=O)N([C@@H](C)CO)C[C@H]1C | 13 | 5

Exported with two lines to a compound: 10 of the compounds above
Below each SMILES: Vaccinia inh, Vaccinia inh Venus
CCC(=O)Nc1ccc2c(c1)OC[C@H](C)N(C(=O)C1CC1)C[C@@H](C)[C@H](OC)CN(C)C2=O
  14, 9
COc1ccc(/C=C2\SC(=S)N(CCCC(=O)NC34CC5CC(CC(O)(C5)C3)C4)C2=O)cc1
  13, 12
C[C@H](CO)N1C[C@H](C)[C@H](CN(C)S(=O)(=O)c2ccc(-n3cccn3)cc2)OCc2cn(nn2)CCCC1=O
  25, 3
C[C@H]1CN([C@@H](C)CO)C(=O)c2cc(-c3ccc(C(=O)N(C)C)cc3)cnc2O[C@H]1CN(C)C(=O)c1cccnc1
  26, 17
O=C(C[C@H]1CC[C@@H](NC(=O)c2ccc3c(c2)OCO3)[C@H](CO)O1)NC1Cc2ccccc2C1
  -13, -13
COc1cccc(CNC(=O)C[C@@H]2C=C[C@H](NC(C)=O)[C@@H](CO)O2)c1
  4, 5
O=C(O)C[C@H]1C[C@@H]2c3cc(NC(=O)Nc4ccc(F)cc4)ccc3O[C@@H]2[C@@H](CO)O1
  7, 2
COCC(=O)N1CC2(CN(Cc3cccnc3)C2)c2c(n(C)c3cc(OC)ccc23)[C@@H]1CO
  -1, -6
O=C(CC1CC1)N1CC[C@@H]2[C@@H](CO)Nc3ccc(-c4ccc(F)cc4)cc3[C@@H]21
  -20, -13
CNC[C@@H]1OCCCC[C@@H](C)Oc2ccc(NS(=O)(=O)c3cccs3)cc2C(=O)N([C@@H](C)CO)C[C@H]1C
  13, 5
